TRPV1 potentiator = HTS Assay for Compounds that Act as Potentiators of the Vanilloid Receptor 1 | Transient receptor potential cation channel subfamily V member 1 (Homo sapiens), Q8NER1 | TRPV1-expressing cells, Fluo-8 calcium influx, capsaicin EC20 potentiation; host cell line not named in the record; control for the full effect not named in the record | potentiation, % at 8.33 µM | hit rate 0.02% among 320,000 | AID 540277, 2011; active means potentiation above 80%; inconclusive means 30% to 80%; inactive means below 30%; also: 0% is about no effect
Target sequence (Q8NER1 whole entry, looked up): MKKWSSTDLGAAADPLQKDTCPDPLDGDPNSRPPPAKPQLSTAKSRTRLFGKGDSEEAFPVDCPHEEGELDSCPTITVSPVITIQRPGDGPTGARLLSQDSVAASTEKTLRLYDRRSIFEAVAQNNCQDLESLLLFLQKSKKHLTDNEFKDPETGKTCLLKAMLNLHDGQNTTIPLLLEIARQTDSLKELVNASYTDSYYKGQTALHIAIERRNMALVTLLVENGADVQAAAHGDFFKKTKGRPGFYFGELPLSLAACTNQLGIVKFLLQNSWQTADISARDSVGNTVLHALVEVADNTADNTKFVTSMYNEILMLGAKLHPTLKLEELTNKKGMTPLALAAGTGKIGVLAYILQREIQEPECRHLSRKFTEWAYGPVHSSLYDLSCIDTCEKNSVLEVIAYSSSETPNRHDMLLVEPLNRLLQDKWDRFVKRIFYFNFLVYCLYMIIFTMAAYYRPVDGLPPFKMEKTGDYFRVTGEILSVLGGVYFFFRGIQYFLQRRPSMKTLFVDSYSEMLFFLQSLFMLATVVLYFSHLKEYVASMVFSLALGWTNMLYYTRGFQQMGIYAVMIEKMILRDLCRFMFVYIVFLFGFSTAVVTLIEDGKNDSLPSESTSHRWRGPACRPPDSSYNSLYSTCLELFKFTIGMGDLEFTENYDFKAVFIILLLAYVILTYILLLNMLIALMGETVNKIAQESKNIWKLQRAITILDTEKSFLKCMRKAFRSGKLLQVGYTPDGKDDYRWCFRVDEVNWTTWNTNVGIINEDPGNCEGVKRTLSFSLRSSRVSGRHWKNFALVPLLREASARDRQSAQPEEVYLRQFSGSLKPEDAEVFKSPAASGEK
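Cells expressing TRPV1 were dye-loaded with Fluo-8 and read kinetically: 10 s baseline, 3 min after compound (agonist portion), then 2 min after EC20 capsaicin (allosteric enhancer portion). Calcium-bound dye fluorescence at 480/520 nm.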
D2 ag = Beta-Arrestin HTS for Positive Allosteric Modulators of the Human D2 Dopamine Receptor: Agonists; D(2) dopamine receptor (Homo sapiens), P14416; DiscoveRx PathHunter D2 beta-arrestin, luminescence, 90 min; 100% = 57 uM dopamine signal; activation, % (no concentration beside the values); hit rate 0.084% among 360,000; in the data active = activation above about 40%; inconclusive = about 15% to 40%; inactive = below about 15%; also: compound concentration not given in the record; the text of the record calls up to 30% inactive
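DiscoveRx PathHunter D2 beta-arrestin cells (2,100/well) attached overnight, then compound-stimulated 90 min at 37 C in HBSS/10 mM HEPES/0.1% Tween-20 buffer; beta-galactosidase complementation read by luminescence after 1 h at ambient temperature. Dopamine 57 uM final (EC100) as control.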
CtBP-E1A inh = qHTS Assay for Inhibitors of the CtBP/E1A Interaction. AID 651724, 2012. hit rate 0.49% among 340,000. AlphaScreen GST-E1A/His-CtBP binding, 1536-well; stronger effect = lower value; control for the full effect not named in the record. activity change, % (concentration not given with the values). CtBP / adenovirus E1A interaction (AlphaScreen); in the data active means activity change below about -65%; inconclusive means about -30% to -65%; inactive means above about -30%; also: % is scaled to controls: 0 for no effect and ±100 for the full control effect
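AlphaScreen with 125 nM GST-E1A and 125 nM His-CtBP (5X stocks) in Tris pH 8.0, 300 mM NaCl, BSA, Tween 20, TCEP. Compounds preincubated 2 h at 37 deg C, then glutathione donor/nickel acceptor beads added for 1 h at 37 deg C in dark.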
PINK1 expr mod = A Quantitative High throughput Screen to Identify Chemical Modulators of PINK1 Expression; PINK1 immunofluorescence, high-content cytometry, 24 h; Potency, µM (top dose mostly 76.6 µM), without a hit: top-dose activation (PINK1 increase), most hits filed as activators; hit rate 0.2% among 410,000; AID 624263, 2012; active = well fitted activation curve with a large enough effect; inconclusive = small, poorly fitted or top-dose-only effect; inactive = flat fitted curve, though single readings scatter; cell line not stated here;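 also: potency is read from the fitted curve at half-maximal effect; % of control where 0% means no effect; nearly all actives have a fitted effect of over 65% in size; a mitochondrial uncoupler was the plate control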
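Cells are seeded, rested 12 hours, then given compound at five concentrations or DMSO for 24 hours. After fixation, blocking and antibody staining, PINK1 amount and mitochondrial localization are scored; CCCP serves as control.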
Six1-Eya2 blk = qHTS Assay for Inhibitors of the Six1/Eya2 Interaction | Homeobox protein SIX1 (Homo sapiens) + Protein phosphatase EYA2 (Homo sapiens), … | activity change, % (concentration not given with the values) | AlphaScreen GST-Six1/His-Eya2 binding, biochemical; stronger effect = lower value; control for the full effect not named in the record | hit rate 0.56% among 360,000 | AID 651725, 2012; in the data active = activity change below about -65%; inconclusive = about -30% to -65%; inactive = above about -30%; also: % is scaled to controls: 0 for no effect and ±100 for the full control effect
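Homogeneous AlphaScreen proximity assay pairing GST-Six1 with His-tagged Eya2 (added as 5X mix: 250 nM and 500 nM) in 50 mM Tris pH 8.0, 300 mM NaCl, 1 mM TCEP. Glutathione donor and nickel acceptor beads; 1 h, 37 °C, dark.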
D2 potentiator = Beta-Arrestin HTS for Positive Allosteric Modulators of the Human D2 Dopamine Receptor: Potentiators; AID 624464, 2012; DiscoveRx D2 beta-arrestin cells, luminescence, 90 min; 100% = 57 uM dopamine signal; D(2) dopamine receptor (Homo sapiens), P14416; potentiation, % (concentration not given with the values); hit rate 0.23% among 360,000; active = potentiation of 50% or more; inconclusive = 30% to 50%; inactive = 30% or less;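 also: compound concentration not given in the record; tested on top of an EC20 dose of dopamine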
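PathHunter D2 cells, attached overnight at 37 deg C, received compound in DMSO plus dopamine at EC20 (50 nM final) for 90 min at 37 deg C. Beta-arrestin recruitment was read as luminescence after 1 h with detection reagent at ambient temperature.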
Sfp inh = qHTS Assay for Inhibitors of Bacillus subtilis Sfp phosphopantetheinyl transferase (PPTase) | 4'-phosphopantetheinyl transferase ffp (Bacillus subtilis), Q9F4F7 | hit rate 3.5% among 310,000 | Potency, µM, inactives show max response, negative = inhibition, hits mostly inhibitors | Biochemical Sfp PPTase activity, qHTS; active = well fitted inhibition curve with a large enough effect; inconclusive = small, poorly fitted or top-dose-only effect, or another doubt; inactive = no such curve, though single readings can be large or run the other way;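 also: the enzyme is Sfp with the accession as filed and its product quenches rhodamine fluorescence; potency is read from the fitted curve at half-maximal effect; 0% = enzyme reaction without inhibitor and -100% = no enzyme wells; top concentration of the series not given in the record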
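Compounds were incubated with enzyme (final 15 nM) for 15 min at room temperature before substrate addition started the reaction. Fluorescence at 525 nm excitation, 598 nm emission was recorded immediately and after 30 minutes.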
An asterisk follows results filed as active; ? = inconclusive; nt = not tested or not shown; & = joins results of further samples; [ ] = remark or other dose. Compounds were not picked by outcome; 3.7% or so of the library scored in one or more.

Values in the order – Sfp inh	TRPV1 potentiator	D2 ag	PINK1 expr mod	D2 potentiator	CtBP-E1A inh	Six1-Eya2 blk
> CCCC[C@H](CN(N=O)[C@@H](Cc1ccccc1)CN(C)N=O)N(CCc1ccccc1)N=O
    1%	-7	0.6	0.6%	22	0	-2
> Cn1nc(C(F)(F)F)c(C(=O)Nc2ccc(Cl)cc2)c1Cl
    0%	-14	-1.3	0.0%	-10	0	7
> CC1(NCc2ccc(Cl)cc2)COP(=O)(NCc2ccccc2)OC1 (centres undefined)
    nt	nt	-2.9	-0.9%	-17	4	-1
> COc1ccc(NC2CCCN(C(=O)c3ccc4nc(C)c(C)nc4c3)C2)cc1OC (centres undefined)
    11%	-12	?	-0.8%	-8	-3	0
> CCCCCC(=O)NC(=S)Nc1ccc(N2CCOCC2)cc1
    -16%	8	-5.4	0.8%	-6	nt	7
> CCOC(=O)/C=C/C(=O)Nc1ccc(S(=O)(=O)N2CCc3ccccc32)cc1
    11%	3	-4.1	5.4%	-16	-8	-2
> CCC(=O)N1c2ccccc2NC2=C(C(=O)CCC2)C1c1ccco1 (centres undefined)
    -1%	1	-0.1	0.3%	1	4	-2
> O=C(COC(=O)C1CCN(S(=O)(=O)c2ccc3c(c2)OCCO3)CC1)Nc1cccc2ccccc12
    5%	1	-1.2	-2.1%	-18	2	-5
> CN(C)C(=O)/C(=C\c1cccc(Oc2ccccc2)c1)NC(=O)c1ccccc1
    -5%	4	-3.0	11%	4	4	8
> CCN(CC)S(=O)(=O)c1cc(NC(=O)CSc2nccn2C)ccc1C
    1%	-8	-1.1	1.7%	-14	2	-1
> CC(C)C1Nc2ccc(S(N)(=O)=O)cc2C2C=CCC21 (centres undefined)
    35µM*	2	5.3	0.0%	52*	-5	-4
> COc1ccc(C(c2sc3nc(C)nn3c2O)N2CCC(O)CC2)cc1OC (centres undefined)
    9%	2	-3.9	1.8%	-6	-1	0
> COc1ccccc1CNC(=O)Nc1nnc([C@H]2C[C@H](O)[C@@H](CO)O2)s1
    nt	nt	-5.6	1.0%	-2	5	6
> Cc1nnc(SCC(=O)NCC2CCCO2)n1Cc1ccccc1 (centres undefined)
    nt	nt	-1.4	-0.3%	-9	-2	-3
> COc1ccc(CN2CCN(S(=O)(=O)c3ccc(F)cc3)CC2)c(OC)c1OC
    -22%	5	0.4	-3.3%[38.3 µM]	-9	3	-1
> Cc1cc(Br)cc2c1NC(=O)C2(O)CC(=O)c1ccco1 (centres undefined)
    -22%	7	-1.5	-1.6%	-9	nt	0
> COc1ccc(/C=N/NC(=O)c2cccnc2)cc1COc1ccc(NC(C)=O)cc1
    28%	-10	-6.3	15%	-7	-4	-5
> O=C1C2C3C=CC(CC3)C2C(=O)N1c1ccc(Cl)cc1 (centres undefined)
    18%	21	5.3	1.6%	-1	nt	9
> CN(C)S(=O)(=O)c1ccc2c(c1)C(CC(=O)O)OC2=O (centres undefined)
    13%	7	-0.3	-1.8%	-12	-2	4
> CCc1nnc(N/N=C/c2cc(Br)c(O)cc2O)n1N
    50µM*	13	?	8.2%	4	-91*	-80*
> CC1CCCN(C(=O)COC(=O)Cc2c(F)cccc2Cl)C1 (centres undefined)
    19%	-8	-6.9	0.0%	1	0	-1
> N/C(Cc1nc2ccccc2s1)=N\O
    2%	-7	-1.2	0.7%	0	0	0
> CN(C)c1ccc(/C=C(\C#N)C(=O)OCC(=O)N(C)C2CCS(=O)(=O)C2)cc1 (centres undefined)
    nt	16	-0.3	-1.5%	-24	17	-2
> CCOC(=O)Cc1cc(-c2ccccc2)nc2ccc3ccccc3c12
    ?	-4	-2.2	4.7%	-2	-2	36
> O=C(COC(=O)c1ccccc1)Nc1ccccc1Sc1ccccc1
    -5%	-3	0.0	1.3%	7	2	40
> CCN(CC)c1ccc(S(=O)(=O)N2CCCCC2)cc1NC(=O)CSCc1c(C)noc1C
    nt	nt	1.2	-0.3%	0	-22	-10
> Cc1cccc(Nc2nc(N)nc(CCl)n2)c1
    -2%	4	-1.8	22%	1	-1	0
> CCN1C(=O)[C@H]2[C@@H](c3ccc(-c4ccc(F)cc4)cc3)N[C@@](C)(C(=O)OC)[C@H]2C1=O
    nt	nt	-1.8	-0.3%	-9	2	-11
> COC(=O)c1cnc(NNS(=O)(=O)c2ccc(C(F)(F)F)cc2)nc1C(F)(F)F
    -17%	10	3.1	1.0%	2	nt	22
> CCOC(=O)/C=C(\C)Sc1cc(O)c2ccccc2c1O
    7.9µM*	7	?	7.8%	4	nt	?

Reprinted from the part before: 2 entries, then new ones.
Values in the order – Sfp inh	TRPV1 potentiator	D2 ag	PINK1 expr mod	D2 potentiator	CtBP-E1A inh	Six1-Eya2 blk
> COC(=O)c1cnc(NNS(=O)(=O)c2ccc(C(F)(F)F)cc2)nc1C(F)(F)F
    -17%	10	3.1	1.0%	2	nt	22
> CCOC(=O)/C=C(\C)Sc1cc(O)c2ccccc2c1O
    7.9µM*	7	?	7.8%	4	nt	?
> OC[C@@H]1CN(Cc2ccncc2)C[C@H](n2cnc3c(N4CCN(c5ccccc5)CC4)ncnc32)O1
    nt	nt	2.0	1.9%	-7	?	-29
> COc1ccc(C(=O)NCC(=O)OCC(=O)c2ccc3c(c2)OCCO3)cc1
    2%	-2	0.5	-2.6%	-9	-2	8
> Fc1cccc(Nc2ncnc3sc4c(c23)CCC4)c1
    ?	5	0.2	2.6%	14	4	4
> CC(C)Sc1nc2sc3c(c2c2nnc(SCC(=O)NCc4ccco4)n12)CCCC3
    -29%	24	-1.9	9.2%	-2	-4	-15
> Cc1ccc(Cn2nnc3c(=O)n(CC(=O)N4CCCc5ccccc54)cnc32)cc1
    -7%	-52	-3.7	1.0%[38.3 µM]	-4	7	1
> CC(C)(O)c1cn(-c2nonc2N)nn1
    17%	-9	-2.0	-0.7%	-13	15	8
> CCOc1cc(CNCc2cccs2)cc(Br)c1OC
    3%	-6	-0.6	-0.4%	-36	12	30
> COc1ccc(F)cc1S(=O)(=O)NC1CCCC1
    -4%	-3	-1.6	12%[38.3 µM]	-11	37	21
> O=C(Cc1cccc(NC(=O)C2CCCN(C(=O)C3CCCCC3)C2)c1)Nc1ccc(C(=O)N2CCOCC2)cc1 (centres undefined)
    nt	nt	-3.1	0.5%	-3	4	-6
> C/C(=N\NC(=O)c1sccc1-n1cccc1)c1cccs1
    17%	11	0.7	6.2%	-5	3	-1
> COc1ccc(OC)c(-n2c(-c3ccccc3)n[nH]c2=S)c1
    -10%	5	-1.6	-0.9%	3	-1	-2
> CCOC(=O)C1CCCN(C(=O)c2ccc(SC(F)(F)F)cc2)CC1 (centres undefined)
    nt	nt	-1.5	1.7%	-7	6	-4
> COc1cc(NC(=O)c2ccc(NS(=O)(=O)c3c(C)noc3C)cc2)cc(OC)c1
    9%	1	0.8	-1.3%	-1	-12	-3
> CCCc1nnc(NC(=O)Nc2ccc(OC)cc2)s1
    7%	-2	3.5	1.5%	-1	2	5
> Cc1ccc(NC(=O)COC(=O)CN2CCCCCC2=O)c(C)c1
    nt	-2	-4.6	0.3%	-2	nt	4
> CCOc1cc(NC(=O)c2ccccn2)c(OCC)cc1NC(=O)c1ccc(OC)cc1
    10%	1	-2.2	12%	-9	5	-6
> CNC(=O)c1ccccc1Sc1ccccc1C#N
    9%	3	-6.5	2.1%	-2	-12	5
> COC(=O)c1ccc(OC(=O)CCN2C(=O)C3CCCCC3C2=O)cc1 (centres undefined)
    3%	2	9.5	0.8%	0	0	46
> CCCCOC(=O)c1ccc(O)cc1
    2%&10%&16%	11	-3.8	1.3%	-18	5	-2
> CCCCn1c(SCC(=O)NC2CCS(=O)(=O)C2)nc2cc(S(N)(=O)=O)ccc21 (centres undefined)
    1%	11	0.9	-0.2%	-6	8	1
> COc1cc(C(=O)N2CCN(C(=O)c3cc(-c4ccccc4)n[nH]3)CC2)cc(OC)c1OC
    9%	3	6.7	0.8%	3	1	-2
> COc1cccc(C(c2nnnn2C(C)(C)C)N2CCN(C3CCCCC3)CC2)c1OC (centres undefined)
    17%	-8	-3.9	-4.1%	-4	4	8
> CC1Cc2ccccc2N1C(=O)CSc1nnc(NC(=O)Cc2cccs2)s1 (centres undefined)
    15%	10	-0.7	18%	-2	-2	-2
> CCOc1ccccc1OCC(=O)Nc1cc(S(=O)(=O)N2CCCCC2)ccc1N1CCN(CC)CC1
    nt	0	-7.3	-1.6%	-41	-13	-17
> Nc1ccc(-c2nnn(CC(=O)N3CCCCC3)n2)cc1
    9%	0	-2.0	-1.1%	-28	nt	14
> COc1ccc(CN(C)C(=O)C2CSC3(C)CCC(=O)N23)c(OC)c1 (centres undefined)
    nt	nt	0.1	0.3%	-3	1	0
> CC(C)(C)OC(=O)C[C@H]1C/C=C\C[C@@H](CC(=O)N(CCO)Cc2ccccc2)C(=O)N[C@H](Cc2ccccc2)COC1=O
    nt	nt	-4.0	0.9%	-19	1	2
> CCC1CCCCN1CCCNC(=O)C(C)n1nc(C)c2sc3ccccc3c2c1=O (centres undefined)
    19%	-4	-2.6	-0.8%	-20	0	19
> CC(=O)Nc1c(C)cc(OCC(=O)O)cc1C
    0%	16	-3.5	-0.9%	-5	-8	-20
> Cc1ccnc(NC(=O)CNC(=O)COc2ccccc2)c1
    nt	-1	-4.5	6.1%	7	0	7
> CCn1c2ccccc2c2nnc(SCC(N)=O)nc21
    16%	-4	1.4	nt	-11	7	-7
> CCCN1CCN(CCCNC(=O)c2ccc(NC(=O)C3=C(C)OCCS3)cc2)CC1
    13%	-12	-4.4	-1.7%	-10	1	-1
